KCNQ2 inh – KCNQ2 potassium channel inhibitors, primary screen, cell-based, CHO-K1, FluxOR thallium flux, B-score (AID 2156). Potassium voltage-gated channel subfamily KQT member 2 (Rattus norvegicus), O88943. 20 min; active compounds read low; only compounds with negative scores are shown here; some inactives read as strong as hits. B-score at 10 µM. 310,000 compounds, 1.1% hits;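 active = fluorescence ratio B-score at most minus 3 library SDs, with starting brightness B-score within 2 library SDs, cut at about -5.5 in these data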
Target sequence (O88943 whole entry, looked up): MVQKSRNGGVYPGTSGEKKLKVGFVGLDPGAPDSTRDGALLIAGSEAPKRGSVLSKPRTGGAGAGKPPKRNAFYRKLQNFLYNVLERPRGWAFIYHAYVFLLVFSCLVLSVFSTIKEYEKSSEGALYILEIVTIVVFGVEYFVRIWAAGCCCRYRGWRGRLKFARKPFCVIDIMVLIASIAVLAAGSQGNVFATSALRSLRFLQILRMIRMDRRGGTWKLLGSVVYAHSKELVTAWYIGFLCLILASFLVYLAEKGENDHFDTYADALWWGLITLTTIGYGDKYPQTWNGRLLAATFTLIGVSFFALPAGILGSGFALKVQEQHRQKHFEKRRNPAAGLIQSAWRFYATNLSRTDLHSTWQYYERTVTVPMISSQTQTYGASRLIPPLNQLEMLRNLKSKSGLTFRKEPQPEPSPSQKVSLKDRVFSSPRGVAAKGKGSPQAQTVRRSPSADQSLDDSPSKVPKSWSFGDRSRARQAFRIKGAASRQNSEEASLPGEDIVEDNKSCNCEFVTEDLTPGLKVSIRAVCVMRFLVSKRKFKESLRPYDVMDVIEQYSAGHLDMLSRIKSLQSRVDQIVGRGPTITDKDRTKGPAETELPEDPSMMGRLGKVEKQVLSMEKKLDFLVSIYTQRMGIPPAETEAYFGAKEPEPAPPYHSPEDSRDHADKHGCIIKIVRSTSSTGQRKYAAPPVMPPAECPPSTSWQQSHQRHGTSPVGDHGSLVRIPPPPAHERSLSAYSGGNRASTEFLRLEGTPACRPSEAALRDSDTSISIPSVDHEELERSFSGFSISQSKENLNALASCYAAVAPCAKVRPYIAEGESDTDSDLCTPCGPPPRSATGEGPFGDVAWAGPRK
KCNQ2 inh baseline – recorded beside KCNQ2 inh, whose call it bears; B-score; measured here: initial fluorescence intensity artifact check;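 brightness before thallium and not channel activity; 0 = typical well and far values either way flag optical interference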
An asterisk follows results filed as active; i = inactive.

KCNQ2 inh baseline	KCNQ2 inh	SMILES
0.18	i	O=CN1CCN(C2CC(=O)N(c3ccc4c(c3)OCO4)C2=O)CC1 (stereo not drawn)
0.72	i	O=C1c2cccc3cccc(c23)C(=O)N1CCCN(C(=O)c1cccs1)c1cccc(F)c1
-0.65	i	COC(=O)c1ccc(CNC(=O)C23CC4CC(CC(C4)C2)C3)cc1
1.8	i	COc1ccc(C(=O)NC(=S)N2CCOCC2)cc1OC
-0.84	i	O=C(O)C1CSC(c2ccccc2Cl)N1C(=O)c1ccc(Cl)cc1 (stereo not drawn)
0.28	i	CC(=O)c1ccc(Nc2cc(C)nc3ccccc23)cc1
-0.48	i	CCc1nnc(NC(=O)c2ccc(Br)c(S(=O)(=O)N3CCOCC3)c2)s1
1.1	i	COc1ccc(/C=C2\SC(=S)N(CCC(=O)NCCCn3ccnc3)C2=O)cc1
0.21	i	Cc1c([N+](=O)[O-])c(C(=O)Sc2ccc(Br)cc2)nn1C
1.5	i	O=C(CCC(=O)Nc1ccccc1Cl)NNC(=O)Nc1cccc([N+](=O)[O-])c1
4.5	i	O=c1c2c3c(sc2ncn1/N=C/c1ccco1)CCCC3
-2	i	Cc1cccc2c(C(=O)N3CCCCC3)cc(-c3ccccc3)nc12
0.09	i	COc1ccccc1/C=C/C(=O)Nc1cccc(S(=O)(=O)NC2=NCCCCC2)c1
-0.55	i	CCOC1(OCC)N=C(N)C2(C#N)C(c3ccc(NC(C)=O)cc3)C12C#N (stereo not drawn)
-2.6	i	Cc1ccc(-c2nn(-c3ccccc3)cc2/C=N/NC(=O)c2ccc3c(c2)OCO3)cc1
0.8	i	Cn1cnc2c1c(=O)n(Cc1ccccc1C#N)c(=O)n2C
4.1	i	COc1ccccc1/C=C/C=C1N=C(/C=C/c2ccc(Cl)cc2)OC/1=O
5.3	i	Cc1ccc(C)c(C(C)NC(=O)c2ccc(Br)o2)c1 (stereo not drawn)
0.03	i	Cc1cc(Br)ccc1NC(=O)c1cnc(N2CCN(c3ccccn3)CC2)c2ccccc12
-0.13	i	N#Cc1ccc(-c2ccco2)nc1SCC(=O)c1ccc(Cl)cc1

The listing continues.
KCNQ2 inh baseline	KCNQ2 inh	SMILES
0.58	i	COc1cccc(C(=O)NCc2ccc(N3CCN(C(=O)OC(C)(C)C)CC3)cc2)c1
-1	i	O=C(CSc1nnc(CNc2ccc(F)cc2)n1CC1CCCO1)Nc1ccccc1 (stereo not drawn)
-0.13	i	Cc1ccccc1OCCC(=O)OCC(=O)Nc1cc(S(=O)(=O)N2CCOCC2)ccc1Cl
0.92	i	Cc1ccccc1Nc1cc(C(=O)NCC2CCCO2)c2ccccc2n1 (stereo not drawn)
2.3	i	CC(=O)N/C(=C/c1ccc(OS(=O)(=O)c2ccc(C)cc2)cc1)C(=O)NCCCO
0.86	i	O=C1Cc2ccccc2Sc2cc(OCCCN3CCCCC3)ccc21
0.11	i	COc1ccccc1-c1nc(C#N)c(N2CCN(C(c3ccccc3)c3ccccc3)CC2)o1
1.1	i	O=C(Nc1ccc(C(=O)N2CCOCC2)cc1)c1ccccc1[N+](=O)[O-]
0.3	i	O=C(Nc1cccc(Cl)c1)N(CCN1CCOCC1)Cc1ccccc1F
0.03	i	COc1ccc(-c2ccc(C3C(C#N)=C(N)Oc4n[nH]c(C)c43)o2)cc1 (stereo not drawn)
0.16	i	O=C(NCc1cccs1)C1CCC(CNS(=O)(=O)c2cccs2)CC1 (stereo not drawn)
0.07*	-6.7*	CN(CC(=O)Nc1ccccc1Sc1ccccc1)C1CCCCC1
0.55	i	CN(Cc1nccs1)C(=O)c1cc(COc2cccc3cnccc23)on1
-0.7	i	CCS(=O)(=O)C(C)(CCl)C(=O)Nc1ccc(C(=O)OC)cc1 (stereo not drawn)
-1.7	i	CCc1c(C)nc2c(OC)cccc2c1SCCC(=O)O
-0.03	i	CCOC(=O)C1(CCOc2ccccc2)CCN(Cc2cc(OC)c(O)c(OC)c2)CC1
2.5	i	COc1ccc(C2=NS(=O)(=O)N(C)C(C(=O)Nc3cc(C)ccc3O)=C2)cc1OC
-0.81	i	CCN1C(=O)[C@H]2[C@@H](c3ccc(OC)cc3)N3C(=O)CN(CC4CC4)C(=O)[C@@]3(C)[C@H]2C1=O
-0.06	i	CCCCOC(=O)C1Cc2ccccc2C(=O)O1 (stereo not drawn)
0.02	i	CCCCCCC1CC(C)(C(=O)CNc2nncs2)OC1=O (stereo not drawn)

Following part.
KCNQ2 inh baseline	KCNQ2 inh	SMILES
1.5	i	CCN1C(=O)C2C(c3ccccc3F)NC(Cc3ccc(O)cc3)(C(=O)OC)C2C1=O (stereo not drawn)
-0.11	i	CN(C)C(=O)c1c([N+](=O)[O-])ncn1C
-1.2	i	O=C(Cn1cnc2c(cnn2-c2ccc(F)cc2)c1=O)N1CCCc2ccccc21
-1.1	i	CCOc1c(N2CCOCC2)c(=O)c1=O
0.48	i	Cc1ccc(CNc2nc(Cl)c(C#N)s2)cc1
-0.74	i	Cc1ccc2c(c1)C(=O)C(=O)N2CCCOc1ccccc1C
-2.9*	-8.3*	CN(C)C(C(=O)Nc1cc(Cl)cc(Cl)c1)c1ccccc1 (stereo not drawn)
1.1	i	CCOC(=O)c1sc(NC(=O)CSc2nc(O)c(Cc3ccccc3)c(=O)[nH]2)nc1C
-0.24	i	Cc1ccc(-c2csc3nnc(SCC(=O)Nc4cccc(C)n4)n23)cc1
-0.95	i	CCN1CCN(C(=O)C(N)Cc2ccccc2)CC1 (stereo not drawn)
2.3	i	CCS(=O)(=O)N1Cc2ccccc2CC1C(=O)OCC(=O)N(C(C)C)C(C)C (stereo not drawn)
0.09*	-8.2*	Cc1nc(N2CCCCC2)c2c(-c3cccs3)csc2n1
0.98	i	O=C(CN1CCc2ccccc2C1)Nc1ccccc1F
2.1*	-6.2*	Cc1cc(Oc2ccc(C(C)(C)C)cc2)nc(N2CCOCC2)n1
-0.74	i	Cc1cccc2sc(NC(=O)[C@H](C)N3C(=O)C4CC=CCC4C3=O)nc12 (stereo partly drawn)
2.3	i	CC(=O)c1cccc(NC(=O)COC(=O)[C@@H](NC(=O)OCc2ccccc2)C(C)C)c1
0.74	i	CCOC(=O)CSc1n[nH]c(NC(=O)c2cccc(C(F)(F)F)c2)n1
-1.7	i	CCn1c(O)c(/C=N/n2cnnc2)sc1=S
1.5	i	COc1ccc(NC(=O)c2c(N)cnn2C)cc1
-1.3	i	Cc1cc(Cc2ccc(N)c(C)c2)ccc1N

(cont.)
KCNQ2 inh baseline	KCNQ2 inh	SMILES
3.5	i	CN(C)c1ccc2c(c1)Sc1cc(N(C)C)ccc1N2C(=O)c1ccccc1
0.5	i	Nc1nonc1-n1nnc(C(=O)N/N=C/c2ccccc2O)c1CN1CCCC1
0.87	i	C=C(C)C1CC=C(CN2CCC(O)CC2)CC1 (stereo not drawn)
-0.39	i	Cc1ccc(CN(Cc2ccco2)C(=S)NCC(=O)NCc2cccnc2)cc1
-0.03	i	CCOC(=O)c1ccccc1-n1nnnc1C
2.7	i	COc1ccc2nc(NC(=O)c3cccc(OCc4c(C)noc4C)c3)sc2c1
-0.9	i	Cc1ccc(N(CC(=O)Nc2cc(Cl)ccc2Oc2ccccc2)S(C)(=O)=O)c(C)c1
1.1	i	CC1CC(C)CN(C(=O)COC(=O)C2CCN(S(=O)(=O)c3c(Cl)cccc3Cl)CC2)C1 (stereo not drawn)
-0.61	i	COc1ccc(C(=O)CSc2nnc(-c3ccco3)o2)cc1
-0.08	i	O=c1[nH]c(C2CCCN(S(=O)(=O)c3ccccc3Cl)C2)nc2c1nnn2Cc1ccc2c(c1)OCCO2 (stereo not drawn)
0.47	i	O=c1cc(CN2CCN(c3ccc(F)cc3)CC2)c2cc3c(cc2o1)CCCC3
2.5	i	O=C(CC1C(=O)NCCN1Cc1ccccc1C(F)(F)F)NC1CCCCC1 (stereo not drawn)
3.6	i	CCOC(=O)C1Sc2[nH]c(=O)sc2C(c2ccc(Cl)cc2)C1C(=O)OCC (stereo not drawn)
1	i	O=c1[nH]c(CSc2nc(-c3ccc(F)cc3)cs2)nc2ccccc12
-2	i	COc1cc2c(cc1NC(=O)c1cccnc1)CCCC2
2.1	i	COc1ccc(CNC(=O)C2CCCN(C(=O)Nc3ccccc3OC)C2)cc1 (stereo not drawn)
1.3	i	Cc1ccc(Cl)cc1NC(=O)C(=O)N/N=C/c1ccc2c(c1)OCO2
-2.6	i	CCOC(=O)C1=C(C)N=c2s/c(=C/c3cccc([N+](=O)[O-])c3O)c(=O)n2C1c1cc(OC)c(OC)c(OC)c1 (stereo not drawn)
2	i	CS(=O)(=O)c1ccc(C(=O)OCC(=O)N(CCc2ccccc2)Cc2ccccc2)cc1
-0.72	i	Cc1ccc(NC(=O)CSC(C)C(=O)NCCc2ccccn2)cc1 (stereo not drawn)

Carrying on.
KCNQ2 inh baseline	KCNQ2 inh	SMILES
-2.1	i	CC1(C)CC(=O)C=C(NNC(=O)c2ccccc2O)C1
1.6	i	COc1ccc(Br)cc1S(=O)(=O)NNC(=O)c1c(C)nc2ccccn12
0.56	i	COc1ccc(NC(=O)CN2CCN(CC(=O)Nc3ccccc3Cl)CC2)cc1
0.1	i	COC(=O)C(C)Oc1cc(C)ccc1COc1ccc(-n2nc(C)n(C(F)F)c2=O)cc1 (stereo not drawn)
-0.14	i	COc1ccc(OC)c(C2=NOC(C(=O)Nc3c(C)n(C)n(-c4ccccc4)c3=O)C2)c1 (stereo not drawn)
1.9	i	COc1ccc(-n2c(CNC(=O)c3cc(OC)c(OC)c(OC)c3)n[nH]c2=S)cc1
-0.39	i	Cc1[nH]c(=O)nc(SCc2cccc(Cl)c2)c1C#N
0.05	i	COc1cc2nc(C3CCC3)n(NC(=O)COc3ccccc3)c(=O)c2cc1OC
3.5	i	O=C(CC1OC(=O)c2ccccc21)c1ccco1 (stereo not drawn)
0.61	i	O=c1cnnc(N/N=C/c2c[nH]c3ccccc23)[nH]1
1.8	i	CS(=O)(=O)N(CC(=O)N1CCN(Cc2ccc3c(c2)OCO3)CC1)Cc1ccc(Cl)cc1
1.2	i	COc1ccc(-c2c(N)n[nH]c2C)cc1OC
1	i	COc1ccc(NC(=O)CNC(=O)Cn2ccc3ccccc3c2=O)c(OC)c1
3.5	i	O=C(CCNC(=O)C1CCN(S(=O)(=O)c2ccc(F)cc2)CC1)NCc1ccccc1
0.57	i	O=C(NCCc1c[nH]c2ccccc12)C(=O)NCC1OCCN1S(=O)(=O)c1ccccc1 (stereo not drawn)
-1.4	i	COc1ccc(C2c3c(ncn(Cc4ccco4)c3=N)Oc3ccc4ccccc4c32)cc1 (stereo not drawn)
-0.27	i	O=C(CN1CCCCC1)Nc1ccccc1Oc1ccccc1
-0.07	i	O=C(c1cn(-c2ccccc2)nc1-c1cccs1)N1CCN(c2ccc(F)cc2)CC1
1.7	i	COc1cc(C)c(S(=O)(=O)N2CCCC2)cc1C(C)C
0.44	i	C=CCC(CC)C(=O)NC(=O)N1CCCc2ccccc21 (stereo not drawn)

(listing goes on)
KCNQ2 inh baseline	KCNQ2 inh	SMILES
-1.1	i	Cc1ccc(COC(=O)c2nn(C)c(=O)c3ccccc23)cc1
-1	i	O=c1[nH]nc(SCCS(=O)(=O)c2ccc(F)cc2)n1-c1ccc2c(c1)OCCO2
1.8	i	CCCCC1=CC2=C(c3ccco3)C(=O)C(C)(OC(=O)c3ccc(OC)cc3)C(=O)C2=CN1CCCN(CC)CC (stereo not drawn)
-0.25	i	COC(=O)c1c(NC(=O)c2ccc(C)c(S(=O)(=O)Nc3ccccc3C)c2)sc2c1CCCC2
0.67	i	O=C(Nc1ccc(Cl)cc1)N(Cc1cccs1)Cc1cccs1
0.17	i	O=C(N/N=C/c1cccs1)C1CC(=O)N(c2ccccc2)C1 (stereo not drawn)
1.4	i	CCc1ccccc1N(CC(=O)NC1CCCCC1)C(=O)CCCC(=O)Nc1ccccn1
-0.25	i	Cc1ccc(C(=O)NC(=S)/C=C2\N(C)c3ccccc3C2(C)C)cc1
0.01	i	CC(=O)c1cccc(S(=O)(=O)N2CCCC(c3nc4c(nnn4Cc4cccc(Cl)c4)c(=O)[nH]3)C2)c1 (stereo not drawn)
-0.19	i	COc1ccc(Cc2nnc(NCCO)[nH]c2=O)cc1

By substructure, the entries above with a thiophene ring, fused or not (eight)
KCNQ2 inh baseline	KCNQ2 inh	SMILES
0.72	i	O=C1c2cccc3cccc(c23)C(=O)N1CCCN(C(=O)c1cccs1)c1cccc(F)c1
4.5	i	O=c1c2c3c(sc2ncn1/N=C/c1ccco1)CCCC3
0.16	i	O=C(NCc1cccs1)C1CCC(CNS(=O)(=O)c2cccs2)CC1 (stereo not drawn)
0.09*	-8.2*	Cc1nc(N2CCCCC2)c2c(-c3cccs3)csc2n1
-0.07	i	O=C(c1cn(-c2ccccc2)nc1-c1cccs1)N1CCN(c2ccc(F)cc2)CC1
-0.25	i	COC(=O)c1c(NC(=O)c2ccc(C)c(S(=O)(=O)Nc3ccccc3C)c2)sc2c1CCCC2
0.67	i	O=C(Nc1ccc(Cl)cc1)N(Cc1cccs1)Cc1cccs1
0.17	i	O=C(N/N=C/c1cccs1)C1CC(=O)N(c2ccccc2)C1 (stereo not drawn)

As entered above.
O=c1[nH]nc(SCCS(=O)(=O)c2ccc(F)cc2)n1-c1ccc2c(c1)OCCO2 @ KCNQ2 inh baseline = -1
COC(=O)c1c(NC(=O)c2ccc(C)c(S(=O)(=O)Nc3ccccc3C)c2)sc2c1CCCC2 @ KCNQ2 inh baseline = -0.25
CC(=O)c1cccc(S(=O)(=O)N2CCCC(c3nc4c(nnn4Cc4cccc(Cl)c4)c(=O)[nH]3)C2)c1 (stereo not drawn) @ KCNQ2 inh baseline = 0.01

Molecules above that contain a CF3 group:
KCNQ2 inh baseline	KCNQ2 inh	SMILES
0.74	i	CCOC(=O)CSc1n[nH]c(NC(=O)c2cccc(C(F)(F)F)c2)n1
2.5	i	O=C(CC1C(=O)NCCN1Cc1ccccc1C(F)(F)F)NC1CCCCC1 (stereo not drawn)

High-throughput results: PubChem BioAssay, Johns Hopkins Ion Channel Center

An excerpt; the hit share may differ from the screen's.
